Screens: PubChem BioAssay, several laboratories
CSC inhib = cancer stem cell inhibition. inhibition, % at 7.5 µM. cancer stem cell-like cells viability, luminescence. AID 2717. 300,000 compounds, 1.1% hits;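 active = mean at 75% or more and at least half the replicates too; inconclusive = mean and replicates disagree; tested in HMLE shEcad cells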;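 also: 0% = median of negative and 100% = median of positive control wells; the first replicate is given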
PABP FP inh = blocks human PABP binding to poly(A) RNA; fluorescence polarization; AID 2014; inhibition, % at 35 µM; P11940; 290,000 compounds, 1% hits;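 active = 50% or more with normal probe brightness, or confirmed in later tests; inconclusive = above 50% with abnormal brightness, or retests that disagree; inactive = below 50% or failed in later tests; about a fifth of its hits are not listed in these tables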;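 also: calls also rest on retests at 20 µM and on dose response follow-up; controls were probe without protein and protein plus probe with vehicle; some compounds called inactive have numbers as strong as hits; many hits fall short of the cut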
Target sequence (P11940 whole entry, looked up): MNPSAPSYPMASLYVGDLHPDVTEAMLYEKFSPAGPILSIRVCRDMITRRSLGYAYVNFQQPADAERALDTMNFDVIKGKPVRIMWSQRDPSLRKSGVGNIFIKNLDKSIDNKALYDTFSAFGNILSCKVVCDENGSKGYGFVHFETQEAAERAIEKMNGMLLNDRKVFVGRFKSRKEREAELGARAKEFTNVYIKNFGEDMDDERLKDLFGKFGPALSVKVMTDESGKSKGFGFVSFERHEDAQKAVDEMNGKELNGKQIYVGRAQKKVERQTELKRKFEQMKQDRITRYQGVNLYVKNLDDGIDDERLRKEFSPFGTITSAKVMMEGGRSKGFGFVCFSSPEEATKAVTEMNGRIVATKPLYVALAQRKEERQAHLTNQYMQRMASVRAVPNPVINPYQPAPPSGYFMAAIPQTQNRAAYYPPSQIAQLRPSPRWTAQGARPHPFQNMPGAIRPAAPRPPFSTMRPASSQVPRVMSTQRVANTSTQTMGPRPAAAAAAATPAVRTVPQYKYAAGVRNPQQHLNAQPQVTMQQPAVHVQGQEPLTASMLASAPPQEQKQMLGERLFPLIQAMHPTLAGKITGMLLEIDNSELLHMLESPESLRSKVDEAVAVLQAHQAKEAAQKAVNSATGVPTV
MT1-MMP act inh = blocks activation of human MT1-MMP | P50281 | HT1080 RFP-PRO-GFP cells, GFP/RFP ratio fluorescence, overnight; percent of plate control window, DMSO zero | GFP/RFP ratio change, % at 20 µM | 360,000 compounds, 0.061% hits | AID 651647;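 active = GFP/RFP ratio change of at least 30% with cell ATP level not reduced by more than half and red fluorescence within 50% of control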; also: strong numbers were not always called active
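system = RFP-PRO-GFP reporter HT1080 cells | dosing = 20 µM single dose, 1% DMSO | timing = overnight cell settling, then overnight compound exposure, 37 °C, 5% CO2 | read-out basis = GFP/RFP fluorescence ratio | controls = DMSO and RFP-L50D-GFP cell wells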
UUG fidelity = alters start codon recognition fidelity in yeast | AID 602363 | 350,000 compounds, 0.13% hits | activity score, % at 18.7 µM | S. cerevisiae UUG-firefly luciferase reporter, luminescence/redox ratio;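 active = replicate mean at a twofold rise or more, about +100% in these data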;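 also: firefly luciferase made from a UUG start codon reports start codon fidelity; reporter light over untreated wells divided by growth signal over untreated wells; some hits fall short of that in this replicate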
Env fusion inh = HIV envelope-mediated fusion inhibition | HeLa-JRFL Env/CEM21 cell fusion, luciferase | inhibition, % at 12.3 µM | 360,000 compounds, 1.1% hits;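 active = mean replicate inhibition score of at least 50 and every replicate individually at or above 50; inconclusive = only one of the two criteria met; inactive = mean below 50 and not all replicates reaching 50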;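 also: 0% = plate neutral controls and 100% = maraviroc near 300 nM; one replicate is shown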
eIF4H FP inh = inhibitors of RNA binding by human eIF4H. Q15056. eIF4H fluorescence polarization binding assay. inhibition, % at 35 µM. 290,000 compounds, 0.94% hits. AID 2012;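 active = 50% or more with normal probe brightness, or confirmed in later tests; inconclusive = above 50% with abnormal brightness, or retests that disagree; inactive = below 50% or failed in later tests; about a fifth of its hits are not listed in these tables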;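 also: calls also rest on retests at 20 µM and on dose response follow-up; 0% = protein and probe with vehicle and 100% = probe without protein; strong numbers were not always called active; many hits fall short of the cut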
Rce1 inhib = blocks yeast Ras-converting enzyme; 290,000 compounds, 0.27% hits; calls only; Q03530; yeast membranes, quenched prenylated peptide cleavage fluorescence;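 active = fall in fluorescence gain of 50% or more versus controls, with final raw signal at or below 3038400; inconclusive = same 50% fall but final raw signal above 3038400; inactive = fall in fluorescence gain under 50%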;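 also: plate controls were neutral control wells for no effect and wells lacking membranes for full effect; tested at 10 µM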
Target sequence (Q03530 whole entry, looked up): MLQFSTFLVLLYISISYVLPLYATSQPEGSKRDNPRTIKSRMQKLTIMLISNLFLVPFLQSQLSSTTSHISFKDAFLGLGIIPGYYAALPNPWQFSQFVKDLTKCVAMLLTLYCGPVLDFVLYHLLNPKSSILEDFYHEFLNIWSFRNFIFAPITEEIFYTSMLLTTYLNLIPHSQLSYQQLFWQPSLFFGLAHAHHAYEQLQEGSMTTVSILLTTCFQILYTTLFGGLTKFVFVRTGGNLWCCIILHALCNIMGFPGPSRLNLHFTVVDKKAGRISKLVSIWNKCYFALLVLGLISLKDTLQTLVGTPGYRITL
MT1-MMP act inh RFP = second read-out of MT1-MMP act inh, no call of its own (marks repeat the call); RFP signal change, %; measured here: RFP expression control read;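 0 = vehicle wells; hits needed this value within 50% of zero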
The depositor's hits bear a star.

COc1ccc(NC(=O)/C=C/c2cccc(F)c2)cn1 was read as CSC inhib -2, PABP FP inh -4, MT1-MMP act inh -12, UUG fidelity -1, Env fusion inh -221, eIF4H FP inh inconclusive, Rce1 inhib inactive and MT1-MMP act inh RFP 1.
For COc1ccc(C2=NN(c3nc(-c4ccc(CNC(C)=O)cc4)cs3)C(c3ccco3)C2)cc1 (configuration not stated) the results were CSC inhib -4, PABP FP inh -3, MT1-MMP act inh -4, UUG fidelity -16, Env fusion inh -3, eIF4H FP inh 3 and MT1-MMP act inh RFP 2.
Screening Cc1cccc(-c2oc3ccc(-c4ccc5c(c4)OCO5)cc3c2-c2ccc(OC3CCCCO3)cc2)c1 (configuration not stated) returned CSC inhib 10, MT1-MMP act inh 6, UUG fidelity -7, Env fusion inh 15, Rce1 inhib inactive and MT1-MMP act inh RFP 5.
For CN(C)C(CNC(=O)CN1C(=O)NC2(CCc3ccccc32)C1=O)c1ccco1 (configuration not stated) the results were CSC inhib -15, PABP FP inh 8, MT1-MMP act inh 4, UUG fidelity -19, Env fusion inh 5, eIF4H FP inh -2, Rce1 inhib inactive and MT1-MMP act inh RFP 4.
For COc1ccc(C(=O)OCC(=O)NC(=O)NC2CCCC2)cc1OC the results were MT1-MMP act inh 7, UUG fidelity 5, Env fusion inh 10 and MT1-MMP act inh RFP -4.
Screening COC(=O)c1[nH]c2cccc(Cl)c2c1NC(=O)CN1CCN(CCO)CC1 returned CSC inhib -10, PABP FP inh -10, MT1-MMP act inh 8, UUG fidelity 0, Env fusion inh 8, eIF4H FP inh -4, Rce1 inhib inactive and MT1-MMP act inh RFP 3.
COc1cc(S(=O)(=O)Nc2ccc3nc(C)sc3c2)ccc1NC(C)=O was read as CSC inhib 8, MT1-MMP act inh -2, UUG fidelity -6, Env fusion inh 18 and MT1-MMP act inh RFP -23.
`COc1ccc(C2SCCN2S(=O)(=O)c2ccc(NC(C)=O)cc2)cc1` (configuration not stated) gave CSC inhib 7, PABP FP inh 2, MT1-MMP act inh 1, UUG fidelity -12, Env fusion inh -10, eIF4H FP inh -3, Rce1 inhib inactive and MT1-MMP act inh RFP -6.
`CCc1cccc2c(C(=O)COC(=O)/C=C/c3ccc(O)c(OC)c3)c[nH]c12` gave CSC inhib 36, PABP FP inh -29, MT1-MMP act inh 4, UUG fidelity -11, Env fusion inh -27, eIF4H FP inh -4, Rce1 inhib inactive and MT1-MMP act inh RFP -2.
COc1ccc(N2C(S)=C(C#N)C(=O)NC2c2ccc(OC)c(OC)c2)cc1 (configuration not stated) was read as CSC inhib -4, PABP FP inh 14, MT1-MMP act inh 0, Env fusion inh 4, eIF4H FP inh 5, Rce1 inhib inactive and MT1-MMP act inh RFP 3.
For O=C(N/N=C\c1cc(Br)cs1)C1COc2ccccc2O1 (configuration not stated) the results were PABP FP inh -7, MT1-MMP act inh -5, UUG fidelity -8, Env fusion inh -171, eIF4H FP inh -3, Rce1 inhib inactive and MT1-MMP act inh RFP -10.
Screening Nc1nc(-c2ccccc2)c(N=Nc2ccc(Cl)cc2)s1 returned CSC inhib 6, PABP FP inh -10, MT1-MMP act inh 27, Env fusion inh 10, eIF4H FP inh 17, Rce1 inhib inactive and MT1-MMP act inh RFP -1.
Screening COc1ccc(C2C(C#N)=C(/N=C/N3CCOCC3)OC3=C2C(=O)CC(C)(C)C3)cc1OC (configuration not stated) returned CSC inhib -5, PABP FP inh 5, MT1-MMP act inh -2, UUG fidelity -19, Env fusion inh 1, eIF4H FP inh -14, Rce1 inhib inactive and MT1-MMP act inh RFP 1.
For O=C(c1ccc2c(c1)OCO2)N1CCOCC1 the results were CSC inhib 4, PABP FP inh -11, MT1-MMP act inh 3, UUG fidelity 0, eIF4H FP inh -6, Rce1 inhib inactive and MT1-MMP act inh RFP 0.
CCn1cc(C2=NOC(C(=O)Nc3cccc(C(C)=O)c3)C2)c(C)n1 (configuration not stated) was read as PABP FP inh 3, MT1-MMP act inh 4, UUG fidelity -7, eIF4H FP inh 8, Rce1 inhib inactive and MT1-MMP act inh RFP -10.
`CCCc1cc(=O)[nH]c(SCC(=O)Nc2c(C)cccc2C)n1` gave CSC inhib -2, PABP FP inh 12, MT1-MMP act inh 7, UUG fidelity -9, eIF4H FP inh -10, Rce1 inhib inactive and MT1-MMP act inh RFP 1.
For CN(CCC1CCCCO1)Cc1cn(C)nc1-c1ccc2c(c1)OCCO2 (configuration not stated) the results were CSC inhib -21, PABP FP inh 2, MT1-MMP act inh -6, Env fusion inh -4, eIF4H FP inh 7, Rce1 inhib inactive and MT1-MMP act inh RFP -3.
For CN(C)c1ccc(NC(=O)c2cc3c(=O)n4ccccc4nc3n2C)cc1 the results were CSC inhib -4, MT1-MMP act inh 6, UUG fidelity -4, Env fusion inh -150, Rce1 inhib inactive and MT1-MMP act inh RFP -1.
`Cc1ccc(NC(=S)N(CCN2CCCCC2)Cc2ccco2)cc1` gave CSC inhib 3, PABP FP inh -10, MT1-MMP act inh 1, eIF4H FP inh -8, Rce1 inhib inactive and MT1-MMP act inh RFP 0.
Screening COc1ccc(OCC(=O)NNC(=O)C2CCC2)cc1 returned CSC inhib 14, MT1-MMP act inh 2, UUG fidelity -14, Env fusion inh -2 and MT1-MMP act inh RFP 5.
`CC(=O)N(CCCN1CCOCC1)Cc1ccncc1` gave CSC inhib -1, PABP FP inh 16, MT1-MMP act inh 0, UUG fidelity -13, Env fusion inh -6, eIF4H FP inh 7, Rce1 inhib inactive and MT1-MMP act inh RFP 6.
COc1ccc(OC)c(N=C(C)C2=C(O)COC2=O)c1 was read as CSC inhib 1, PABP FP inh 16, MT1-MMP act inh 6, UUG fidelity 13, eIF4H FP inh 11, Rce1 inhib inactive and MT1-MMP act inh RFP 2.
CC1(C)C(=O)Nc2ccccc2N1C(=O)COC(=O)/C=C/c1ccc(OC(F)F)cc1 was read as CSC inhib -12, MT1-MMP act inh 1, Rce1 inhib inactive and MT1-MMP act inh RFP 5.
Screening CCOCc1nnc(NC(=O)c2ccc3c(c2)OCO3)s1 returned CSC inhib -12, PABP FP inh 1, MT1-MMP act inh 2, UUG fidelity 0, Env fusion inh -18, eIF4H FP inh -8, Rce1 inhib inactive and MT1-MMP act inh RFP 5.
For O=C(Nc1c2c(nn1-c1ccc(F)cc1)CS(=O)C2)c1ccc2c(c1)OCO2 (configuration not stated) the results were CSC inhib -3, PABP FP inh 4, MT1-MMP act inh 3, UUG fidelity -14, Env fusion inh 1, eIF4H FP inh -1, Rce1 inhib inactive and MT1-MMP act inh RFP -1.
For O=C(Cc1ccsc1)N1CCc2c([nH]c3ccccc23)C1c1ccccn1 (configuration not stated) the results were CSC inhib 4, PABP FP inh 22, MT1-MMP act inh -2, Env fusion inh 3, eIF4H FP inh 15, Rce1 inhib inactive and MT1-MMP act inh RFP -2.
C/C(=N\NC(=O)CSc1nc(C)cc(C)n1)c1ccc([N+](=O)[O-])cc1 was read as CSC inhib -15, PABP FP inh 9, MT1-MMP act inh 3, UUG fidelity -7, Env fusion inh 4, eIF4H FP inh -5, Rce1 inhib inactive and MT1-MMP act inh RFP 1.
COc1ccccc1NC1=Nc2cccc3cccc1c23 was read as CSC inhib 4, PABP FP inh -1, MT1-MMP act inh -3, UUG fidelity 1, Env fusion inh -5, eIF4H FP inh -8, Rce1 inhib inactive and MT1-MMP act inh RFP -1.
For c1ccc(C2=Nn3c(nnc3-c3cccnc3)SC2)cc1 the results were CSC inhib -3, PABP FP inh 0, MT1-MMP act inh 10, Env fusion inh -6, eIF4H FP inh -4, Rce1 inhib inactive and MT1-MMP act inh RFP 6.
For Cc1ccc(S(=O)(=O)N2CCCCC2)cc1NCC(=O)Nc1ccc(Br)cc1F the results were MT1-MMP act inh 1, UUG fidelity -17, Env fusion inh 42 and MT1-MMP act inh RFP -27.
Screening CC(C)CNC(=S)NC1CC2CCCC(C1)N2Cc1ccco1 (configuration not stated) returned CSC inhib 6, PABP FP inh 2, MT1-MMP act inh 2, UUG fidelity -17, Env fusion inh -16, eIF4H FP inh -8, Rce1 inhib inactive and MT1-MMP act inh RFP -2.
`O=C(COc1ccc(S(=O)(=O)NC2CCCCC2)cc1)N1CCN(c2cccc(Cl)c2)CC1` gave PABP FP inh -5, MT1-MMP act inh 0, UUG fidelity -16, eIF4H FP inh -13, Rce1 inhib inactive and MT1-MMP act inh RFP -19.
For O=C(CSc1nnnn1-c1ccccc1Cl)Nc1ccc2c(c1)OCCO2 the results were CSC inhib -15, PABP FP inh -6, MT1-MMP act inh 6, UUG fidelity -11, Env fusion inh 24, eIF4H FP inh -5, Rce1 inhib inactive and MT1-MMP act inh RFP -6.
For Cc1cc(S(=O)(=O)NCC2CCCO2)c(C)cc1Br (configuration not stated) the results were CSC inhib -8, PABP FP inh 6, MT1-MMP act inh 1, UUG fidelity 6, Env fusion inh 16, eIF4H FP inh -14, Rce1 inhib inactive and MT1-MMP act inh RFP -3.
Screening CCCOc1ccccc1/C=C1/C(=O)ON=C1C returned CSC inhib -2, PABP FP inh 23, MT1-MMP act inh 3, UUG fidelity 5, Env fusion inh 13, eIF4H FP inh 1, Rce1 inhib inactive and MT1-MMP act inh RFP 0.
CCOC(=O)C1CCN(S(=O)(=O)c2ccc(OC)c(C(=O)N3CCCCC3)c2)CC1 was read as CSC inhib 11, PABP FP inh 14, MT1-MMP act inh 0, UUG fidelity -7, Env fusion inh -4, eIF4H FP inh 1, Rce1 inhib inactive and MT1-MMP act inh RFP 0.
Screening CCNC(=O)Cn1cc(C(F)(F)F)cc(Cl)c1=O returned CSC inhib -19, PABP FP inh -4, MT1-MMP act inh 0, Env fusion inh 9, eIF4H FP inh -10, Rce1 inhib inactive and MT1-MMP act inh RFP 2.
Screening CCOC(=O)C1CCN(C(=O)CN(c2ccc(OC)c(OC)c2)S(=O)(=O)c2ccccc2)CC1 returned CSC inhib -6, PABP FP inh 11, MT1-MMP act inh 4, UUG fidelity 5, eIF4H FP inh -7, Rce1 inhib inactive and MT1-MMP act inh RFP 2.
O=C1C(C=NCc2cccnc2)=C(O)c2ccccc21 was read as PABP FP inh 6, MT1-MMP act inh -4, eIF4H FP inh 3, Rce1 inhib inactive and MT1-MMP act inh RFP 4.
Screening COCCNC(=O)Nc1ccc2c(c1)N(C)C(=O)c1ccccc1S2 returned CSC inhib -11, PABP FP inh 0, MT1-MMP act inh 0, UUG fidelity -5, Env fusion inh 22, eIF4H FP inh 2, Rce1 inhib inactive and MT1-MMP act inh RFP 0.
O=S1(=O)CCN2N=C(C3CC3)SC2=N1 was read as CSC inhib -8, PABP FP inh 34, MT1-MMP act inh 3, UUG fidelity -16, Env fusion inh 9, eIF4H FP inh -14 and MT1-MMP act inh RFP 3.
Cc1c(NC(=O)CSCc2ccc(Cl)cc2Cl)cccc1C(=O)O was read as CSC inhib -2, PABP FP inh 8, MT1-MMP act inh 2, UUG fidelity -1, Env fusion inh -1, eIF4H FP inh -2, Rce1 inhib inactive and MT1-MMP act inh RFP 2.
`CC(=O)c1ccc(N2C(=NC(=O)C3CCCCC3)SC3CS(=O)(=O)CC32)cc1` (configuration not stated) gave CSC inhib -1, PABP FP inh 2, MT1-MMP act inh 0, UUG fidelity -17, Env fusion inh 2, eIF4H FP inh -1, Rce1 inhib inactive and MT1-MMP act inh RFP 0.

Retrieved one by one from the list above:
Screening CCNC(=O)Cn1cc(C(F)(F)F)cc(Cl)c1=O returned CSC inhib -19, PABP FP inh -4, MT1-MMP act inh 0, Env fusion inh 9, eIF4H FP inh -10, Rce1 inhib inactive and MT1-MMP act inh RFP 2.
For O=C(Cc1ccsc1)N1CCc2c([nH]c3ccccc23)C1c1ccccn1 (configuration not stated) the results were CSC inhib 4, PABP FP inh 22, MT1-MMP act inh -2, Env fusion inh 3, eIF4H FP inh 15, Rce1 inhib inactive and MT1-MMP act inh RFP -2.
